Screens as filed in PubChem BioAssay.
UCH37 inh – human UCH37 deubiquitinating enzyme inhibition | Q9Y5K5 | purified proteasome/UCH37, Ub-AMC cleavage fluorescence | inhibition, % (concentration not given with the values) | actives 0.33% (n = 330,000) | AID 588478;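 active = mean of two replicates above 20%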;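 note: 0% = compound-free wells with enzyme and 100% = wells lacking proteasome; stock transfer was 100 nL into about 20 µL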
Target sequence (Q9Y5K5 whole entry, looked up): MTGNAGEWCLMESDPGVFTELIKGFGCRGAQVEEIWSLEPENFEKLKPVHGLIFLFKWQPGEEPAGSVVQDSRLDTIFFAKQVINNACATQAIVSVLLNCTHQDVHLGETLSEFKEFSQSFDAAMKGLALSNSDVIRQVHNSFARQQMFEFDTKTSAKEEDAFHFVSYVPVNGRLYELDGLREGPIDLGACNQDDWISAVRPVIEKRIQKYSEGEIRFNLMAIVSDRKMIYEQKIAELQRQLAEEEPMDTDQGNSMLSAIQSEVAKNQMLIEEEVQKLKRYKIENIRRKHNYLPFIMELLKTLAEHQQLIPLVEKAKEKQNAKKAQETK
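System: Proteasome-associated human UCH37 deubiquitinase; Input: 0.15 nM proteasome in added enzyme buffer; Also added: Ub-AMC substrate from 1 µM stock; Incubation: 30 min compound-proteasome preincubation then 25 min substrate reaction, room temperature; Detection: fluorescence, ex 355 nm, em 460 nm; Read-out: % inhibition of Ub-AMC cleavage fluorescence; Benchmarks: no-proteasome and no-compound wells.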
LANA-H2A inh – blocks KSHV LANA binding to histone H2A/H2B | Q9QR71 | inhibition, % (test concentration not listed) | AID 2629 | actives 0.6% (n = 320,000) | cell-free LANA-H2A/H2B peptide, fluorescence polarization; in the data active = inhibition mostly above about 10%, no sharp cut-off; inactive = mostly below about 6.7%;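 note: stock transfer was 7.5 nL into about 10 µL; 0% = median of vehicle wells and 100% = median of positive control wells; one replicate is shown; the record names a cut of 25% in any replicate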
E coli growth – E. coli growth inhibition | Escherichia coli growth, OD600, 23 h; active compounds read low | OD600 absorbance (concentration not given with the values) | actives 0.21% (n = 330,000);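 active = OD600 absorbance below the run mean of sample wells minus 3.6 SD, in any replicate, cut at about 0.56 in these data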;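 note: stock transfer was 300 nL into about 60 µL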
HNF4A DNA FP – change in binding of human HNF4 alpha to DNA; P41235; HNF4a-FITC DNA binding, fluorescence polarization, 1 h; activity change, % at 10 µM; actives 0.3% (n = 360,000); in the data active = activity change above about 30%, passing the limit was not always enough;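 note: controls were the assay level and a saturating level of protein; the project sought stronger binding though the title names inhibitors; some compounds called inactive have numbers as strong as hits; positive values seem to mean higher polarization but the record does not say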
Target sequence (P41235 whole entry, looked up): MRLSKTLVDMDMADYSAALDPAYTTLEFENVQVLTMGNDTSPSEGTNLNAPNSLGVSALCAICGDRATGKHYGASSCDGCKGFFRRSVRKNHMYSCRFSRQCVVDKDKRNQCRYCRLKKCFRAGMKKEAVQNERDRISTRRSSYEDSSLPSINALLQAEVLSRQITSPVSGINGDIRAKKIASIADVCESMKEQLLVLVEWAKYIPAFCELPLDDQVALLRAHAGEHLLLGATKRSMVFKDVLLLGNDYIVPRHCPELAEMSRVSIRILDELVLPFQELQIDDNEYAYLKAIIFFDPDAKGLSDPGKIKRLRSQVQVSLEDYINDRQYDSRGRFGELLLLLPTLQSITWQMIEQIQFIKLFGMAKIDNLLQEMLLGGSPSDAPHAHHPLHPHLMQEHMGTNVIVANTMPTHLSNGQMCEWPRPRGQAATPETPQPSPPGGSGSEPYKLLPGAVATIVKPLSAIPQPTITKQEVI
A1 inh – inhibitors of the anti-apoptotic protein A1, read as caspase activation; MEF A1-2A-BIM cells, Caspase-Glo 3/7 luminescence, 3 h; percent of clofoctol response, vehicle zero; caspase activation, % (no concentration beside the values); actives 0.066% (n = 330,000); AID 2462;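 active = over half of replicate activation scores above 10%, or exactly half above 10 with the replicate mean above 10; inconclusive = replicate mean below 10 yet half the replicates above 10; inactive = over half of replicates below 10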;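 note: wells of about 30 µL received 50 nL stock; many hits fall short of the cut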
Vif A3G – HIV-1 Vif–A3G interaction blockers – biochemical, TR-FRET, GST-Vif 1-94, biotin-A3G peptide, dose response retest, primary screen (AID 1117319); inhibition, %, or IC50 in µM where a hit was titrated; TR-FRET GST-Vif / biotin-A3G peptide binding; higher % means a stronger effect; test concentration not given here; strong numbers were not always called active; actives 0.57% (n = 260,000);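 active = above the screen mean plus three standard deviations and confirmed in dose response; inconclusive = results disagree or hit not tested in dose response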;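 note: Vif residues 1-94 fused to GST binding biotinylated APOBEC3G peptide 110-148; 0% = full assay without inhibitor and 100% = GST in place of GST-Vif; retest series ran down from 100 µM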
B2AR ag – activates human beta-2 adrenergic receptor causing internalization; P07550; Am2.2-beta2AR cells, FAP receptor internalization, flow cytometry; reference of the scale not given here; response, % (test concentration not listed); actives 0.43% (n = 340,000);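 active = response above a set limit, near 3 SD of response in nonfluorescent compounds, cut at about 42% in these data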;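 note: stock transfer was 100 nL into about 11 µL; a reference agonist was the positive control; negative values mostly stem from fluorescent compounds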
Active calls of the source: *; ? = inconclusive; . = no result given; & = joins results of further samples; ! = a repeat was not active. Random draw from the library (roughly 2.1% active in at least one column).

SMILES	UCH37 inh	LANA-H2A inh	E coli growth	HNF4A DNA FP	A1 inh	Vif A3G	B2AR ag
O=C(C1=NN(c2ccccc2)C2C(=O)N(c3cccc(Cl)c3)C(=O)C12)c1ccccc1 (stereo unspecified)	-69.6	16.7	0.691	9.6	0.6	.	5.7
Cc1cccc(C)c1-n1ncc(C(=O)NC2CCCC2)c1C1CCNCC1	5.2	-0.6	0.666	-1.7	?	0.7%	8.5
Cc1ccccc1N(C(=O)CNC(=O)c1ccco1)C(C(=O)NC1CCCC1)c1ccncc1 (stereo unspecified)	0.6	-5.4	0.632	0.5	-1.0	.	7.4
O=C1c2ccccc2S(=O)(=O)N1CCOc1ccc(F)cc1	4.4	3.8	0.65	1.8	0.0	-4.7%	4.4
C=C1C(=O)C=C2CN(C(=O)c3ccccc3)[C@@](Cc3ccc(F)cc3)(C(=O)OC)[C@@H]12	-0.1	-2.4	.	4.4	-0.3	.	79.3*
CC(=O)Nc1ccc(S(=O)(=O)N2CCN(Cc3ccccc3[N+](=O)[O-])CC2)cc1	1.4	5.5	0.736	5.2	0.1	-7.7%	-7.5
C#Cc1ccc([C@@H]2C=C(C(=O)NCc3ccccc3)O[C@H](OCC)[C@H]2CCCO)cc1	1.9	-3.1	0.798	3.5	-0.1	8.1%	-2.2
COc1ccc(CNC(=O)c2sccc2C)cc1	0.1	6.7	0.633	-1.2	-0.2	-4.4%	-0.6
Cc1nn(C)c(C)c1NC(=O)C12CC3CC(CC(C3)C1)C2	3.1	1.1	0.69	-0.3	0.4	.	-1.2
COc1ccc(C)cc1NC(=O)c1cccc(-c2ccc(OC(C)=O)cc2)c1	-0.2	1.8	0.702	-2.4	0.4	.	9.8
COc1ccc(C(CC(=O)Nc2cc(C)ccn2)N2Cc3ccccc3C2=O)cc1 (stereo unspecified)	3.1	9.3	0.652	0.8	-0.1	-7.2%	-17.6
CCNc1nc(NC(C)(C)C)nc(SCC(N)=O)n1	3.0	-4.0	0.699	16.3	0.2	-9.6%	-4.6
O=C(Nc1cccc2ccccc12)C1CCN(C(=O)Cc2ccccc2)CC1	5.5	-0.2	0.637	1.3	-0.4	-1.4%	10.3
CCOC(=O)N1CCC(NC(=O)C2CCN(S(=O)(=O)c3c(C)noc3C)CC2)CC1	1.4	-3.0	0.727	-2.5	-0.3	-6.4%	-3.8
CC(=O)Nc1nonc1NC(C)=O	3.9	0.0	0.758	-1.2	-0.4	-1.7%	-3.6
COc1ccc(CCNC(=O)C/C(C)=N/NC(=O)C2CCCCC2)cc1OC	.	-6.1	.	4.4	0.1	-5.0%	9.2
CCN(C(=O)CSC1=Nc2ccccc2C2CC=NN12)C1CCS(=O)(=O)C1 (stereo unspecified)	6.4	-3.6	0.663	-0.3	0.1	4.5%	-6.8
CCNc1cc(N2CCOCC2)nc(SC)n1	-0.5	5.1	0.678	-3.0	1.1	.	1.6
O=C(CSc1nnnn1-c1cccc(C(=O)O)c1)NC(c1ccccc1)c1ccccc1	-2.0	-5.3	0.682	-3.0	-0.3	-1.7%	5.8
C=CCOc1cccc(C2C(C(=O)c3ccco3)=C(O)C(=O)N2Cc2ccco2)c1 (stereo unspecified)	7.5	5.3	0.691	0.0	-0.5	.	10.4
O=S(=O)(c1ccc(F)cc1)c1nc(-c2ccc(F)cc2)oc1NCCN1CCOCC1	-1.1	.	0.79	3.1	.	0.8%&20.1%	4.2
CCOc1ccc(S(=O)(=O)N2CCCC(C(=O)NCc3ccccn3)C2)cc1Cl (stereo unspecified)	3.7	-3.3	0.703	-0.1	0.4	-2.9%	-8.2
COc1coc(C(O)C[N+](=O)[O-])cc1=O (stereo unspecified)	2.6	-5.5	0.707	2.5	0.1	?	-0.7
CC1CCN(C(=O)c2nc[nH]c2C(=O)N2CCc3ccccc3C2)CC1	-1.3	-1.0	0.709	0.5	0.8	.	-5.2
O=C(/C=C/c1ccc(F)cc1)NC(=S)N1CCN(c2ccccn2)CC1	3.7	2.2	0.707	1.0	0.2	-11.3%	-1.6
Clc1ccc2c(NCc3ccccn3)ccnc2c1	-21.8	1.7	0.606	-2.2	1.3	2.7%	9.4
Cc1ccc(OCC(=O)Nc2ccc3c(c2)nc2n3CCOC2)cc1	0.3	1.2	0.658	3.9	-0.2	-4.3%	-5.2
Cn1c(N)c(C(=O)CSc2nnc(C3CC3)n2Cc2ccccc2)c(=O)[nH]c1=O	3.7	.	0.697	1.0	.	6.5%	-5.5
Cc1nnc(SCC(=O)NNC(=O)c2ccccc2)n1N	5.3	2.3	0.674	2.5	-1.4	-2.9%	-5.2
O=C(c1ccc(COc2ccc(F)cc2)o1)n1cccn1	2.2	2.0	0.677	1.3	-3.1	6.2%	6.7
CC(CCc1ccccc1)N1CCN(Cc2ccccc2)CC1 (stereo unspecified)	5.1	-0.6	0.671	0.0	1.8	-2.1%	-0.7
NC(=O)C1CCN(CC(=O)Nc2ccccc2Sc2ccccc2)CC1	3.6	-0.4	0.697	1.5	0.3	.	-0.8
O=C(NCCO)c1cccc(S(=O)(=O)N2CCCCC2)c1	2.9	4.9	0.687	-2.3	0.0	20.6%	8.3
CCC(=O)Nc1cccc(NC(=O)CSc2nnnn2Cc2ccccc2)c1	2.2	3.4	0.684	-0.3	0.3	-3.6%	-7.8
COc1ccc(CNC(=O)CCN2C(=S)NC(C)(C)CC2C)cc1 (stereo unspecified)	2.8	-0.8	0.717	-0.5	0.4	4.8%	-1.8
CCCn1nc(NC(=O)c2cccs2)c2cc3cc(C)ccc3nc21	.	-3.3	.	1.2	0.0	.	1.8
COc1ccc(OC)c(S(=O)(=O)Nc2ccc(O)c3ccccc23)c1	1.0	-1.2	0.731	-3.3	-2.4	8.62µM*!	52.5*
COc1ccc(OC)c(NC(=O)/C=C/c2ccccc2[N+](=O)[O-])c1	4.1	5.0	0.709	0.7	-2.5	-7.4%	-0.1
CCN(CC(=O)Nc1ccc(NC(C)=O)cc1)C(=O)c1ccc(N2C(=O)c3ccccc3C2=O)cc1	1.6	.	0.672	3.6	.	.	-1.1
Cc1ccccc1Cn1nc(C)c(NC(=O)C(F)(F)F)c1C	-2.0	-7.3	0.654	-6.2	1.6	-10.9%	-1.0
CCOC(=O)C1=NNC2(c3ccc(C)cc3)C(=O)N(c3ccc(Cl)cc3)C(=O)C12 (stereo unspecified)	2.0	-3.9	0.723	-0.7	0.7	.	7.5
CC(C)(C)NC(=O)CN(CCN1CCOCC1)C(=O)CNS(=O)(=O)c1ccc(Cl)cc1	1.7	5.6	0.634	2.0	0.0	-9.1%	-1.9
O=C(NC1CC1)c1ccc2c(c1)ncn2C1CCCC1	4.8	7.2	0.661	3.6	0.1	-6.3%	-14.7
Cn1c(=O)[nH]c(=O)c2[nH]c(NCCCN3CCOCC3)nc21	-0.1	-0.1	0.712	1.8	1.0	2.2%	-15.9
Cc1cccc(N2CCN(C(=O)c3cc(COc4ccc(F)c(F)c4)on3)CC2)n1	0.9	0.1	0.656	1.0	0.3	.	-4.4
COCCCNC(=O)C(=O)N/N=C/c1cc2c(cc1Br)OCO2	.	2.3	.	0.1	-0.9	7.9%	-9.6
COc1cc(CC(NC(C)=O)C(=O)NC2CCN(C(=O)Nc3ccccc3Cl)CC2)cc(OC)c1 (stereo unspecified)	2.7	-3.4	0.624	-3.6	1.6	3.3%	8.2
CC(=O)N1c2ccc(S(=O)(=O)N3CCCCC3)cc2CC1C(=O)Nc1cccc(C)c1 (stereo unspecified)	0.6	2.0	0.654	5.9	0.5	.	5.1
CNc1cnn(-c2ccc(C)cc2)c(=O)c1Sc1ccc(C)cc1	1.4	6.2	0.606	4.3	-0.1	-4.5%	1.9
CCCC[n+]1ccn(C2=C([O-])c3ccccc3C(=O)/C2=N\S(=O)(=O)c2ccc(Br)cc2)c1	19.3	-1.4	0.709	0.0	-0.1	6.4%	-7.6
CC(C)Nc1nc(NC(C)C)nc(Nn2cnnc2)n1	0.6	3.9	0.655	-1.2	0.5	0.6%	0.4
CC1CC(=O)c2cnc(Nc3ccccc3)nc2C1 (stereo unspecified)	1.6	.	0.761	4.6	.	-4.0%	1.8
O=C(Nc1ccccn1)c1cc(-n2cnnc2)ccc1Cl	2.5	-7.3	0.769	-0.3	0.1	-1.8%	0.5
COCCCNC(=O)c1cc(OC)c(OC)c(OC)c1	2.9	0.0	0.746	3.2	-0.5	69.6%	-4.3
CCOC(=O)C1CCCN(c2ccc(NC(=O)c3snc4c(=O)[nH]cnc34)cc2)C1 (stereo unspecified)	2.0	0.4	0.757	5.1	0.5	5.2%	10.9
CCCC(=O)Nc1c2c(nn1-c1ccc([N+](=O)[O-])cc1)CS(=O)(=O)C2	8.8	4.1	0.657	-4.0	0.8	-2.3%	-11.2
COc1ccc(-c2csc3nc(C)nc(N4CCCCC4)c23)cc1OC	5.9	0.1	0.698	4.3	0.6	-4.8%	12.8
Cc1ccc(-n2ncc3c(=O)n(Cc4cccnc4)cnc32)cc1	2.7	.	0.658	-1.9	.	3.7%	8.5
Nc1ncccc1C(=O)OCC(=O)N1CCN(S(=O)(=O)c2ccc(Cl)cc2)CC1	-159.6	4.3	0.712	0.1	1.6	6.1%	2.2
Cc1ccccc1N1C(=O)C2ON(c3ccccc3)C(c3ccco3)C2C1=O (stereo unspecified)	0.8	0.5	0.614	2.1	-1.0	-6.9%	-0.2
(list continues)
SMILES	UCH37 inh	LANA-H2A inh	E coli growth	HNF4A DNA FP	A1 inh	Vif A3G	B2AR ag
O=C(Cc1ncc(C(F)(F)F)cc1Cl)N1CCN(c2ccccn2)CC1	0.1	2.5	0.646	2.9	0.2	-5.2%	-0.7
COC(=O)CCSCC(=O)Nc1cc(C)on1	0.6	2.2	0.637	-0.8	0.5	0.4%	3.3
Fc1ccc(COc2ccccc2CNc2nn[nH]n2)cc1	0.6	-0.8	0.676	4.1	-0.5	4.1%	0.7
O=C(NC1CC1)c1ccc2c(Cl)c3c(nc2c1)CCCC3	2.4	-1.9	0.668	1.2	0.9	-7.2%	-23.8
O=C(NCCCN1CCOCC1)c1cccc(NC(=O)c2ccccc2)c1	.	-6.5	.	0.8	-0.5	3.2%	0.1
CC1CCN(C(=O)COC(=O)c2ccc(Br)o2)CC1	2.1	-1.7	0.745	2.1	0.5	-0.3%	-7.0
OC(c1ccccn1)C1CCN(Cc2nc(C(c3ccccc3)c3ccccc3)no2)CC1 (stereo unspecified)	0.5	0.6	0.682	-2.3	0.1	2.6%	1.6
COc1cc(/C=C/c2cc(C(=O)O)c3ccccc3n2)cc(OC)c1O	.	4.2	.	0.0	0.3	?	-9.6
COc1ccc(-c2cc3nc(-c4ccccc4)cc(N4CCCC(O)C4)n3n2)cc1 (stereo unspecified)	-376.6	0.2	0.747	-3.1	1.6	.	21.0
COc1ccc(C(C)=O)cc1COc1ccc(Cl)c(C)c1	2.6	4.0	0.613	1.7	-0.6	-6.9%	-5.5
COc1ccc(-c2c(C)cc3oc(=O)cc(-c4ccccc4)c3c2C)cc1OC	1.4	.	0.75	-1.4	.	2.5%	2.9
CCOC(=O)c1[nH]c(C)c(C(=O)OCC(=O)NC(=O)NC(C)(C)C)c1C	2.1	-10.4	0.671	3.5	-3.0	0.1%	0.6
CN(C)C(=O)CSc1nc2ccc(C(=O)c3ccccc3)cc2[nH]1	1.5	0.8	0.676	1.0	-0.4	0.7%	3.3

2 entries picked at random from the list so far:
SMILES	UCH37 inh	LANA-H2A inh	E coli growth	HNF4A DNA FP	A1 inh	Vif A3G	B2AR ag
COc1ccc(-c2cc3nc(-c4ccccc4)cc(N4CCCC(O)C4)n3n2)cc1 (stereo unspecified)	-376.6	0.2	0.747	-3.1	1.6	.	21.0
COc1cc(/C=C/c2cc(C(=O)O)c3ccccc3n2)cc(OC)c1O	.	4.2	.	0.0	0.3	?	-9.6
